Compound activity from PubChem.
D2 ag – human D2 receptor agonism in beta-arrestin assay; activation, % (no concentration beside the values); 0.084% of 360,000 active; DiscoveRx PathHunter D2 beta-arrestin, luminescence, 90 min; 100% = 57 uM dopamine signal; P14416; AID 624465; in the data active = activation above about 40%; inconclusive = about 15% to 40%; inactive = below about 15%; further: compound concentration not given in the record; the text of the record calls up to 30% inactive
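Agonist mode: compounds alone added to overnight-plated D2 PathHunter cells for 90 min at 37 C, with 57 uM final dopamine (EC100) defining full response. Beta-arrestin recruitment detected by chemiluminescent reagent, read after 1 h at ambient temperature.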
CtBP-E1A inh – blocks the CtBP interaction with E1A; AlphaScreen GST-E1A/His-CtBP binding, 1536-well; active compounds read low; control for the full effect not named in the record; activity change, % (test concentration not listed); 0.49% of 340,000 active; AID 651724; in the data active means activity change below about -65%; inconclusive means about -30% to -65%; inactive means above about -30%; further: on the % scale 0 is the no-effect control and ±100 the full control effect
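Steps: dispense buffer (Tris pH 8.0, NaCl 300 mM, TCEP 1 mM, BSA, Tween 20); add 5X protein mix (GST-E1A, His-CtBP, 125 nM each); pin 23 nL compound; 2 h at 37 °C, dark; add 5X beads (50 ug/mL); 1 h; read.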
TRPML1 agonist – agonists of human TRPML1 channel. 0.12% of 410,000 active. activation, % (no concentration beside the values). Q9GZU1. AID 624414. TRPML1-expressing cells, Ca2+ dye fluorescence, FDSS; host cell line not named in the record; reference of the full effect not given here; in the data active = activation above about 50%; inconclusive = about 30% to 50%; inactive = below about 30%; further: 0% is about no effect; the text of the record puts the active cut at 80%
Target sequence (Q9GZU1 whole entry, looked up): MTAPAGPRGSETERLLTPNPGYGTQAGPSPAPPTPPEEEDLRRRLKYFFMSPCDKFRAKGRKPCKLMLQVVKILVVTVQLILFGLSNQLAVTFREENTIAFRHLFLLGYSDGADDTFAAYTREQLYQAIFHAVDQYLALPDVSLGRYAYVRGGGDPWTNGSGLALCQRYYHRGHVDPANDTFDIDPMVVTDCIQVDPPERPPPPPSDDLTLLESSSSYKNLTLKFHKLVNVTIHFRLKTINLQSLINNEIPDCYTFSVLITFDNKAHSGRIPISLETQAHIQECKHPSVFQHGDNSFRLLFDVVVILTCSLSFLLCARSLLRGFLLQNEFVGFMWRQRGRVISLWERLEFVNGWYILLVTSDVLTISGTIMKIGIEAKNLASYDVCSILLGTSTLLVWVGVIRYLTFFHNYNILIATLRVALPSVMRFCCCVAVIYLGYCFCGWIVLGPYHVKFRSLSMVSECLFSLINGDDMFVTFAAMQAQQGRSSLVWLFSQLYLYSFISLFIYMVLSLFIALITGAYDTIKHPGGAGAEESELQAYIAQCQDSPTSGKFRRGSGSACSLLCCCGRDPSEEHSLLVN
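Kinetic FDSS Ca2+ read in Tet-induced TRPML1-DL cells (ABD Ca8 dye plus quencher, 45-90 min RT loading): baseline, then compound, then 110 s agonist window; EC80 agonist 54-4 at 4uM final added afterwards for a 110 s antagonist window.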
Six1-Eya2 inh – Six1/Eya2 interaction inhibition | Q15475+O00167 | AlphaScreen GST-Six1/His-Eya2 binding, biochemical; active compounds read low; control for the full effect not named in the record | activity change, % (concentration not given with the values) | 0.56% of 360,000 active | AID 651725; in the data active = activity change below about -65%; inconclusive = about -30% to -65%; inactive = above about -30%; further: on the % scale 0 is the no-effect control and ±100 the full control effect
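Compounds are tested against tagged Six1 and Eya2 proteins bridged by glutathione donor and nickel acceptor beads; after a one-hour incubation at 37 °C without light, AlphaScreen emission is recorded.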
PINK1 expr mod – modulators of PINK1 expression; PINK1 immunofluorescence, high-content cytometry, 24 h; Potency, µM (doses to about 76.6 µM), without a hit: top-dose activation (PINK1 increase), actives largely listed as activators; 0.2% of 410,000 active; AID 624263; active = well fitted activation curve with a large enough effect; inconclusive = small, poorly fitted or top-dose-only effect; inactive = flat fitted curve, though single readings scatter; cell line not stated here;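 further: potency means the concentration at half of the fitted maximal effect; % of control where 0% means no effect; nearly all actives have a fitted effect of over 65% in size; a mitochondrial uncoupler was the plate control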
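Cells are seeded, rested 12 hours, then given compound at five concentrations or DMSO for 24 hours. After fixation, blocking and antibody staining, PINK1 amount and mitochondrial localization are scored; CCCP serves as control.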
TRPML1 blocker – human mucolipin-1 channel inhibition | Q9GZU1 | TRPML1-inducible cells, Ca2+ dye fluorescence, FDSS; active compounds read low; inhibition of EC80 agonist-evoked calcium signal | activity change, negative = inhibition, % (concentration not given with the values) | 0.02% of 390,000 active; in the data active means activity change below about -50%; inconclusive means about -30% to -50%; inactive means above about -30%;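 further: stimulus is agonist 54-4 at its EC80 concentration; on the % scale 0 is the no-effect control and ±100 the full control effect; the text of the record puts the active cut at -80%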
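TRPML1-DL cells, Tet-induced overnight (~16 h, 37 °C) at 1,500 cells/well, were loaded with Ca8 no-wash dye plus quencher for 45-90 min at room temperature. Compounds were pinned during FDSS kinetic reading; agonist 54-4 at EC80 (4 uM final) then added.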
Numbers without * were called inactive; ? = inconclusive; . = not tested or not shown; & = joins results of further samples; [ ] = another dose, or the depositor's remark.

SMILES	D2 ag	CtBP-E1A inh	TRPML1 agonist	Six1-Eya2 inh	PINK1 expr mod	TRPML1 blocker
COc1ccc(OC)c(NC(=O)CSc2nncc3ccc(OC)c(OC)c23)c1	1.0	-20.5	1.5	-5.4	-1.1%	-1.1
O=S(=O)(NCc1ccccc1)c1ccc2c(c1)OCCO2	-3.7	-2.1	-0.4	3.3	-0.6%	1.2
CCC(=O)Nc1nnc(Cc2ccccc2)s1	0.5	9.1	0.3	0.8	1.2%[38.3 µM]	10.0
Cc1nc(CC(=O)Nc2nccs2)cs1	-3.2	3.6	-0.5	-2.9	1.5%	14.7
O=C(CC1C(=O)NCCN1Cc1cccc(C(F)(F)F)c1)NCCCOc1cccnc1 (stereo not drawn)	-2.1	3.1	-1.0	0.4	-1.2%	7.3
COc1ccc(N2CC(NC(=O)COc3ccccc3)CC2=O)cc1OC (stereo not drawn)	.	.	-0.8	.	16.0%	13.7
COc1ccc(NC(=O)CN(C)C(=O)CNC(=O)c2ccc3ccccc3c2)cc1	-1.6	7.4	0.4	-9.0	2.8%	4.2
CCOC(=O)/C(C#N)=C/c1ccc(SC)cc1	-3.9	-6.1	1.5	12.1	-1.1%	-6.5
CCOc1cc(/C=C(\C#N)C(=O)Nc2cccc(C(=O)O)c2)ccc1OCc1ccc(Br)cc1	-1.3	-8.7	-0.1	-8.4	3.6%	11.8
Cc1nn2c(NCCOCCO)c3c(nc2c1-c1ccccc1)CCCC3	-7.2	-0.6	1.1	-2.6	5.7%[38.3 µM]	3.4
O=[N+]([O-])c1cccc(-c2cn3ccccc3n2)c1	-2.9	0.6	0.3	-13.6	9.1%	-2.2
COc1ccc(NC(=O)c2cnc3sccn3c2=O)cc1	-3.4	5.9	0.1	7.1	-1.0%	-18.9
CCN(CC)c1ccc2cc(C(N)=O)/c(=N\NC(=O)c3ccncc3)oc2c1	?	?	81.0*	-17.6	3.3%	-17.2
CCCNC(=O)C(Cc1cccc(Br)c1)NC(=O)c1ccc(C#N)cc1 (stereo not drawn)	-4.0	-1.4	0.5	-2.6	8.5%	-3.5
Cc1ccc(NC(=O)CNCc2ccccn2)cc1S(=O)(=O)N(C)C	-3.1	?	-0.3	?	1.2%	11.8
Cc1nn(Cc2ccc(Cl)cc2)c(C)c1NC(=O)c1cc(-c2ccco2)on1	1.6	0.7	2.7	5.1	13.0%	-3.0
Cc1ccc(C(=O)N2CCN(c3ccccn3)CC2)cc1	0.2	8.9	0.4	3.4	-1.2%	-17.7
Cc1ccc(C)c(N2CCN(C(=O)Nc3cn(CC(C)C)c(=O)c4ccccc34)CC2)c1	.	.	3.1	.	-4.4%	-0.4
CCn1c(=O)c2cc(C(=O)NCc3ccc(F)cc3Cl)sc2c2ccccc21	.	.	-0.2	.	1.1%	16.2
COc1cc2ccccc2cc1C(=O)Nc1nccs1	-1.7	?	0.4	-17.0	1.2%	-13.6
COc1ccc(/C=C/c2nnc(NC(=O)CC(C)C)s2)cc1	-6.0	-2.2	2.4	8.2	3.6%	9.6
COc1cccc(NC(=O)Cn2cnc3sc(C)c(S(=O)(=O)N4CCN(C)CC4)c3c2=O)c1	-1.5	4.7	0.5	4.9	0.2%	-15.5
Cc1ccc(NC(=O)CN(C)Cc2nc3ccccc3c(=O)[nH]2)c(Br)c1	-2.0	-3.4	0.8	-20.1	3.1%	6.1
CC1CCCC(NC(=O)Cc2ccc(Br)cc2)C1C (stereo not drawn)	2.7	25.8	5.1	2.2	2.7%	19.4
Cc1ccccc1OCCOC(=O)c1cc(S(=O)(=O)N2CCCCC2)ccc1N1CCOCC1	-3.0	0.0	3.2	5.6	-0.1%	29.8
NC(=NCc1ccc2c(c1)OCO2)NC(=O)c1ccccc1	-2.0	-9.8	0.2	-7.7	0.5%	24.8
CN1C(=O)C(O)(C2CCCCCC2=O)c2ccccc21 (stereo not drawn)	-4.2	.	.	13.5	0.1%	.
Cc1cc(-c2ccccc2)nc(N/N=C/c2cccnc2)n1	0.3	12.0	-0.2	-0.1	2.4%	1.0
CCCCN(C)C(=O)c1ccc2c(c1)N(CC)C(=O)c1ccccc1S2=O (stereo not drawn)	0.8	2.2	-0.4	5.5	-0.7%	-7.2
Cc1cccc(C(=O)Oc2ccc(/C=N/O)cc2)c1	0.9	-1.2	1.1	19.3	3.1%[38.3 µM]	3.3
O=c1[nH]cc(C=NNc2ccccc2)c(=O)[nH]1	3.7	4.1	-0.4	2.5	3.3%	.
Cc1oc(-c2ccc3c(c2)OCCO3)cc1C(=O)NCC(=O)O	0.1	0.3	0.3	-4.5	-1.3%	3.2
Cc1ccc2cc3c(NS(=O)(=O)c4cccc5nonc45)nn(CC(C)C)c3nc2c1	-5.2	-7.4	-1.5	-8.7	0.1%	9.9
O=C(N/N=C/c1cccc([N+](=O)[O-])c1)C1CC1c1ccccc1 (stereo not drawn)	3.4	-7.2	-1.0	-17.8	11.6%	-5.8
Cc1ccccc1-c1nc(CS(=O)CC(=O)NCCc2ccc(Cl)cc2)c(C)o1 (stereo not drawn)	-0.9	.	1.2&2.4	-11.8	-0.5%&0.7%	6.6&14.4
CCCCc1nc2cc(C(=O)N3CCC(OC)CC3)ccc2o1	-0.4	4.6	-0.2	2.7	-0.6%	59.0
O=C(COc1ccc(Cl)cc1)NCC(=O)N1CCC2(CC1)NCCc1[nH]cnc12	-2.2	5.3	0.3	-0.2	-0.1%	-8.9
CS(=O)(=O)n1nc(OC(=O)c2cc(Br)ccc2Cl)cc1N	4.6	.	-0.4	3.1	1.4%	4.9
CCOc1ccccc1OCC(=O)OC(C)C(=O)Nc1ncc(Cl)cc1Cl (stereo not drawn)	-1.6	1.0	0.0	-3.7	0.6%	5.6
Cc1ccc2c(c1)C(=O)N1[C@H]3c4ccccc4OC[C@@H]3[C@H](c3ccccc3)[C@]1(C)C(=O)N2	-4.2	-7.6	-0.2	-13.3	-0.4%	14.6
CCOc1ccc(CCNC(=O)CCCn2c(=O)c3cccn3c3cccnc32)cc1	.	.	-0.1	.	1.2%	23.3
COc1ccc(C(C(=O)NC2CCCC2)N(Cc2cccnc2)C(=O)Cc2cccs2)cc1OC (stereo not drawn)	10.1	-0.6	0.2	-6.5	4.1%	-3.0
COc1ccccc1OCC(=O)Nc1cc(NC(=O)COc2ccccc2OC)cc(C(=O)O)c1	-1.8	-7.0	-0.8	-24.0	0.0%	-0.6
CC[C@H](C)[C@H](NC(=O)OCc1ccccc1)C(=O)OCC(=O)N1CCN(c2ccc(F)cc2)CC1	-2.4	.	1.0	-12.3	1.2%	4.1
COc1ccc(C(=O)N2N=C3CC(C)(C)OCC3C2c2ccccc2)cc1 (stereo not drawn)	0.7	-0.1	0.7	-0.8	-1.5%	-5.8
O=C(Nc1ccccc1)NC1(C(=O)NCc2cccs2)CCCCC1	-0.2	9.2	-0.2	2.4	0.4%[38.3 µM]	0.4
C=CCNC(=O)c1c(Cl)nc(C)c([N+](=O)[O-])c1C	-5.6	9.7	0.1	4.5	2.1%	13.5
CCc1cccc(NC(=O)Cn2c(=O)n(-c3cccc(Cl)c3)c(=O)c3c2c2cc(C)ccc2n3C)c1	.	.	0.6	.	1.0%	-4.0
CCN(CC)c1ccc(NC(=O)CN2CCN(S(=O)(=O)c3cc(Cl)ccc3OC)CC2)cc1	1.2	15.6	-0.4&-0.5	?	0.8%	10.0&0.3
Cc1cccc(C)c1-n1nnnc1C(c1ccnc2ccccc12)N1CCN(CCN(C)C)CC1 (stereo not drawn)	.	-3.2	-0.7	-2.7	1.6%	.
COc1ccc2nc(NS(=O)(=O)c3ccc(C)cc3)c(Nc3cc(Cl)ccc3OC)nc2c1	.	.	10.1	.	4.2%	-5.7
CCC1(CC)Cc2ccccc2C(=O)N1	5.3	-4.6	0.3	-2.0	1.3%	-26.5
COC(=O)[C@]1(Cc2ccccc2)N[C@H](c2ccc(-c3ccc4c(c3)OCO4)cc2)[C@@H]2C(=O)N(C)C(=O)[C@@H]21	-0.7	-17.5	-0.8	8.7	0.7%	-2.1
CCOc1ccc(C(=O)NCCc2csc(-c3ccc(C(F)(F)F)cc3)n2)cc1OCC	.	.	3.1	.	-0.4%	-13.6
COC(=O)c1nc2ccccc2s1	-3.9	4.8	-0.7	-2.1	-3.9%	5.0
Cc1ccccc1NC(=O)c1nc(S(C)(=O)=O)ncc1Cl	-4.1	.	-0.7	1.0	0.3%	-1.9
Cc1ccc(NC(=O)c2c(C)oc3ccc(O)c(CN4CCN(Cc5ccccc5)CC4)c23)cc1	.	.	-1.1	.	3.5%	-23.4
O=C(CN1CCCC1)Nc1ccc(NC(=O)Nc2ccccc2Cl)cc1	-3.4	-0.9	-1.2	-4.4	-1.3%	-9.3
NC(=O)COC(=O)/C=C/c1ccccc1[N+](=O)[O-]	-2.2	3.6	0.3	4.7	0.6%	-16.8
Cc1cnc(C)c(N2CCN(Cc3cn(C)nc3-c3cccc(Cl)c3)CC2)n1	-1.9	-7.4	0.5	-4.4	2.0%	8.0
CC(C)(C)OC(=O)N1CCC(c2c(C(=O)NCc3ccco3)cnn2-c2ccccc2)CC1	.	.	0.1	.	-1.0%	-11.2
Cc1nnc(SCC2CCCO2)n1-c1ccccc1 (stereo not drawn)	-0.6	1.3	0.9	4.2	11.3%[38.3 µM]	2.8
